TRPV1 potentiator – enhances activation of the human vanilloid receptor TRPV1. potentiation, % at 8.33 µM. TRPV1-expressing cells, Fluo-8 calcium influx, capsaicin EC20 potentiation; host cell line not named in the record; control for the full effect not named in the record. Q8NER1. AID 540277. 320,000 compounds, 0.02% hits; active means potentiation above 80%; inconclusive means 30% to 80%; inactive means below 30%; also: 0% is about no effect
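Cells expressing TRPV1 were dye-loaded with Fluo-8 and read kinetically: 10 s baseline, 3 min after compound (agonist portion), then 2 min after EC20 capsaicin (allosteric enhancer portion). Calcium-bound dye fluorescence at 480/520 nm.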
CtBP-E1A blk – blocks the CtBP interaction with E1A; AlphaScreen GST-E1A/His-CtBP binding, 1536-well; hits give low values; control for the full effect not named in the record; 340,000 compounds, 0.49% hits; activity change, % (no concentration beside the values); in the data active means activity change below about -65%; inconclusive means about -30% to -65%; inactive means above about -30%; also: % is scaled to controls: 0 for no effect and ±100 for the full control effect
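Protein mix (5X: 125 nM each GST-E1A, His-CtBP) was incubated with pinned compound 2 h at 37 deg C in dark, in 50 mM Tris pH 8.0 buffer with 300 mM NaCl. Glutathione donor and nickel acceptor beads followed; AlphaScreen signal read after 1 h.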
Sfp inh – Sfp phosphopantetheinyl transferase inhibition | Biochemical Sfp PPTase activity, qHTS | 310,000 compounds, 3.5% hits | Q9F4F7 | Potency, µM, inactives show max response, negative = inhibition, hits mostly inhibitors | AID 1490; active = well fitted inhibition curve with a large enough effect; inconclusive = small, poorly fitted or top-dose-only effect, or another doubt; inactive = no such curve, though single readings can be large or run the other way;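 also: the enzyme is Sfp with the accession as filed and its product quenches rhodamine fluorescence; potency is read from the fitted curve at half-maximal effect; 0% = enzyme reaction without inhibitor and -100% = no enzyme wells; top concentration of the series not given in the record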
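Fluorescence-quenching assay with 15 nM Sfp, 5 uM rhodamine-CoA and 12.5 uM BHQ-2-labelled ybbR peptide in pH 7.6 Hepes/MgCl2 buffer. Enzyme was pre-incubated with compound for 15 min at room temperature. Rate was taken from the 30-min fluorescence change (525/598 nm).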
PINK1 expr mod – modulators of PINK1 expression; 410,000 compounds, 0.2% hits; PINK1 immunofluorescence, high-content cytometry, 24 h; Potency, µM (series often up to 76.6 µM), without a hit: top-dose activation (PINK1 increase), most hits filed as activators; active = well fitted activation curve with a large enough effect; inconclusive = small, poorly fitted or top-dose-only effect; inactive = flat fitted curve, though single readings scatter; cell line not stated here;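 also: potency is read from the fitted curve at half-maximal effect; % of control where 0% means no effect; nearly all actives have a fitted effect of over 65% in size; a mitochondrial uncoupler was the plate control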
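Readout is PINK1 immunofluorescence, quantified alongside mitochondrial, cell and nuclear markers by laser-scanning microplate cytometry. Cells from a stable line were exposed to compound titrations (5 concentrations) for 24 hours, with CCCP controls.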
D2 agonist – agonists of human D2 dopamine receptor (beta-arrestin); P14416; activation, % (test concentration not listed); 360,000 compounds, 0.084% hits; DiscoveRx PathHunter D2 beta-arrestin, luminescence, 90 min; 100% = 57 uM dopamine signal; AID 624465; in the data active = activation above about 40%; inconclusive = about 15% to 40%; inactive = below about 15%; also: compound concentration not given in the record; the text of the record calls up to 30% inactive
Target sequence (P14416 whole entry, looked up): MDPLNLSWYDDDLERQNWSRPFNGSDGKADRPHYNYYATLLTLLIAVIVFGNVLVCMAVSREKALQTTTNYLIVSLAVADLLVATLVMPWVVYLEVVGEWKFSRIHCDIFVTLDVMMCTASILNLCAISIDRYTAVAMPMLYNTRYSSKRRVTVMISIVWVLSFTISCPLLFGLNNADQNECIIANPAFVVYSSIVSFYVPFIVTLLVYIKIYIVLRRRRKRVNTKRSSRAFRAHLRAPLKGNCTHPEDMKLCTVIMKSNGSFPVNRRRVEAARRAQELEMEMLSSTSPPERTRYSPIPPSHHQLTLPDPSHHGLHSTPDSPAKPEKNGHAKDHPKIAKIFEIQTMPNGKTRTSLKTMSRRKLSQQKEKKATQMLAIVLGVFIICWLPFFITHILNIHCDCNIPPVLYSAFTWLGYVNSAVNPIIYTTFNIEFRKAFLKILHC
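Agonist mode: compounds alone added to overnight-plated D2 PathHunter cells for 90 min at 37 C, with 57 uM final dopamine (EC100) defining full response. Beta-arrestin recruitment detected by chemiluminescent reagent, read after 1 h at ambient temperature.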
D2 potentiator – positive allosteric modulators of human D2 dopamine receptor | 360,000 compounds, 0.23% hits | DiscoveRx D2 beta-arrestin cells, luminescence, 90 min; 100% = 57 uM dopamine signal | potentiation, % (no concentration beside the values) | P14416; active = potentiation of 50% or more; inconclusive = 30% to 50%; inactive = 30% or less;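 also: compound concentration not given in the record; tested on top of an EC20 dose of dopamine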
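PathHunter D2 cells, attached overnight at 37 deg C, received compound in DMSO plus dopamine at EC20 (50 nM final) for 90 min at 37 deg C. Beta-arrestin recruitment was read as luminescence after 1 h with detection reagent at ambient temperature.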
Six1-Eya2 blk – Six1/Eya2 interaction inhibition | AlphaScreen GST-Six1/His-Eya2 binding, biochemical; hits give low values; control for the full effect not named in the record | Q15475+O00167 | 360,000 compounds, 0.56% hits | activity change, % (no concentration beside the values); in the data active = activity change below about -65%; inconclusive = about -30% to -65%; inactive = above about -30%; also: % is scaled to controls: 0 for no effect and ±100 for the full control effect
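Six1/Eya2 binding was read as AlphaScreen signal after compounds were pinned into GST-Six1 plus His-tagged Eya2 (5X stock 250/500 nM) in pH 8.0 Tris/NaCl/TCEP buffer, beads added, then incubated 1 h, 37 C, dark.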
Active calls of the source: *; ? = inconclusive; . = no result given; & = joins results of further samples; [ ] = dose if it differs, or a comment. Rows are unselected, and some 3.7% of all compounds hit somewhere here.

SMILES	TRPV1 potentiator	CtBP-E1A blk	Sfp inh	PINK1 expr mod	D2 agonist	D2 potentiator	Six1-Eya2 blk
CCOc1ccc(C2=Nn3c(nnc3-c3ccccc3)SC2)cc1Cl	7	-8	14%	0.7%	-2.3	-32	-9
CC(C)CCNc1nc2c(c(=O)n(Cc3cccc(F)c3)c(=O)n2C)n1C	0	-16	0%	2.6%	-4.2	21	-26
CCN(CC(=O)Nc1ccc(C#N)cc1)CC(=O)Nc1ccc2c(c1)OCCO2	.	3	.	1.6%	-4.3	-7	-6
O=C1NC2C(NC(=O)N2C2CCCCC2)N1C1CCCCC1 (stereo unspecified)	0	0	27%	1.6%	-0.2	8	-1
CCOc1ccccc1N1CCN(C(=O)c2c(Cl)cnn2C)CC1	10	-1	23%	-0.5%	-0.1	7	0
CCOC(=O)N1CCC(N2C(=O)c3ccc(C(=O)Nc4ccc(OC)cc4)cc3C2=O)CC1	-4	11	-12%	-0.2%	0.7	-4	1
COC(=O)C1=C(C)NC2=C(C(=O)CC(c3cccs3)C2)C1c1ccsc1 (stereo unspecified)	-10	3	6%	1.6%	-11	-47	1
O=C(Nc1ccccc1)c1ccc2c(c1)OCCO2	-11	-1	11%	0.8%	-4.5	0	-1
CC(=O)c1ccc(S(=O)c2ccccc2)cc1 (stereo unspecified)	10	-13	-1%	14%[38.3 µM]	-2.3	-1	-6
CCC(C)N(C(=O)COC(=O)c1nc(Cl)ccc1Cl)C1CCS(=O)(=O)C1 (stereo unspecified)	1	2	.	-1.8%	-5.9	1	0
CCN(CC(=O)Nc1ccc(OC)cc1)CC(=O)Nc1ccc(Br)cc1F	-5	5	5%	4.2%	3.2	-5	-2
COc1ccc(-c2csc(NC(=O)CSc3n[nH]c(C)n3)n2)cc1	-5	-29	0%	-2.8%	-1.1	-6	-17
C=CCOc1ccc(-c2nc3c(c(=O)[nH]c(=O)n3CCCC)n2C)cc1Br	-13	3	9%	12%	0.7	2	-8
CN(C)S(=O)(=O)c1ccc(C(=O)NCC(=O)N/N=C/c2ccccc2Cl)cc1	-8	1	7%	1.8%	2.1	-7	0
O=C1CC(N2CCSCC2)C(=O)N1c1ccccc1 (stereo unspecified)	-1	6	12%	1.5%	1.3	-4	-3
Cc1sc(N)c(C(=O)c2ccccc2)c1C	5	.	16µM*	3.7%	7.7	2	-1
N#Cc1c(Nc2ccccc2C(F)(F)F)s[nH]c1=O	-12	-3	3.5µM*	0.0%	2.7	-2	-1
O=C(c1ccc(Cl)c(S(=O)(=O)N2CCOCC2)c1)N(c1ccccn1)C1CCCCC1	-21	7	13%	5.2%	1.7	2	11
S=C(NCCc1ccc(Cl)cc1)NCc1ccccc1	0	-18	4%	29%	-3.5	-11	-1
Cc1ccc(C(C)C)c(OCC(O)CN2CCc3ccccc3C2)c1 (stereo unspecified)	-13	-8	-12%	-1.3%	1.0	-25	-2
Cc1ccc(C)c(-c2ccc(=O)n(Cc3ccc(F)cc3Cl)n2)c1	0	4	-15%	3.2%&1.5%	-0.1	-5	5
Cc1cc(=O)n(C(C)Cc2ccccc2)n1C(C)Cc1ccccc1 (stereo unspecified)	.	2	.	-5.0%	-4.1	-17	2
CCOc1ccc(CCNC(=O)c2cc(C)nc3ccccc23)cc1OCC	-21	4	4%	2.0%	-0.3	2	4
COc1ncnc2c1ncn2CCCNCc1ccco1	.	-3	.	0.2%	-0.3	.	1
C/C(=N\NC(=O)c1cccc(S(=O)(=O)N2CCOCC2)c1)c1ccc(C)cc1	-14	0	.	-0.1%	0.2	-4	-2
O=[N+]([O-])c1cccc(NC2=NCCC2)c1	-16	0	20%	-1.7%	-1.3	-6	0
CCOC(=O)N1CCC(NC(=O)C2CCN(C(=O)N3CC(C)Oc4ccc(C)cc43)CC2)CC1 (stereo unspecified)	-17	7	-3%	0.8%	-0.6	6	-2
CC(=O)OC1CCC(OC(C)=O)c2c1n([O-])c(C)c(C)[n+]2=O (stereo unspecified)	-7	2	12%	1.1%	-0.7	12	-2
CCc1cccc(C)c1NC(=S)NCc1cccn1C	2	4	-4%	2.5%	-0.8	-2	-5
CC(C#N)(Nc1ccc(Cl)cc1)c1cccnc1 (stereo unspecified)	1	17	6%	3.6%	-2.9	-22	12
C[C@@H](C(=O)N[C@@H](Cc1c[nH]c2ccccc12)C(=O)O)n1nnc2ccccc2c1=O	10	-2	18%	0.4%	-2.3	-9	0
NC(=O)CN1CCN(C2CC(=O)N(CCc3ccccc3)C2=O)CC1 (stereo unspecified)	2	0	19%	-0.4%	-1.5	0	-7
Cc1csc(SCCn2c(Br)nc3c2c(=O)[nH]c(=O)n3C)n1	12	-1	25%	1.2%[38.3 µM]	-0.3	3	0
CCN1CCN(C(=O)c2cc3c(s2)-c2ccccc2S(=O)(=O)C3)CC1	-9	-9	14%	-0.3%	-4.4	3	4
COCCN1CC(C(=O)NCCc2nc(C)c(C)s2)CCC1=O (stereo unspecified)	8	2	15%	0.2%	0.8	-6	8
Cc1ncc(CN2CCN(Cc3ccc(F)cc3)C(CCO)C2)s1 (stereo unspecified)	1	1	19%	-1.7%	0.8	-17	2
CC(=O)NCc1ccc(-c2csc(-c3cccs3)n2)cc1	-3	2	0%	2.4%	-2.0	-8	3
CC(C)c1ccc(NC2CCCN(C(=O)CCN3CCCO3)C2)cc1 (stereo unspecified)	-25	0	7%	-1.2%	-3.4	-10	3
CCN1C(=S)SC(=O)C1=C1C=C(C)OC(C)=C1	.	-11	7%	?	-0.9	-1	-8
COCCOC(=O)c1c(C)oc2ccc(OC(=O)c3c(OC)cccc3OC)cc12	10	-2	-13%	-1.1%	2.1	19	-1
CCCCNS(=O)(=O)c1ccc2nc(SCC(=O)N3CC(C)OC(C)C3)[nH]c2c1 (stereo unspecified)	-1	2	-9%	1.7%	1.4	-12	3
CCN(C(=O)Cn1c(=O)oc2cc(S(=O)(=O)N3CCOCC3)ccc21)c1ccccc1	-5	.	8%	-0.6%	-3.1	-10	5
O=C(COc1cc2oc(=O)cc(-c3ccccc3)c2cc1Cl)NC(Cc1c[nH]c2ccc(O)cc12)C(=O)O (stereo unspecified)	22	-7	-11%	1.9%	-3.2	-16	-2
O=[N+]([O-])c1cccnc1Oc1ccc(F)cc1	4	-27	13%	-0.7%	-2.3	1	12
Cc1cccc(CCN2C(Nc3ccccc3)=NC[C@@H]2CC(C)C)c1	-55	2	.	2.8%	-2.3	-16	-22
Nc1c(Cl)ncnc1N/N=C/c1cccc(O)c1	-2	.	56µM*	1.0%	-1.5	-7	-15
CC(C)Sc1nc2c(c(=O)n1-c1ccc(F)cc1)SCC2	-3	-10	3%	0.1%	0.7	24	-15
O=C(Cc1ccsc1-c1ccccc1)NO	20	1	6%	5.8%	-0.1	-9	-4
O=C(CN1C(=O)c2ccccc2S1(=O)=O)c1ccc2c(c1)OCCCO2	-4	4	1%	2.6%	-0.6	-1	9
Cc1ccc(S(=O)(=O)C=CS(=O)(=O)c2ccc(C)cc2)cc1	.	-5	.	3.1%	-13	-34	-26
COc1ccc(NC(=O)CN(c2ccc(C)cc2)S(=O)(=O)c2c(C)nn(C)c2C)cc1OC	4	5	19%	5.3%	-3.2	0	-2
O=S(=O)(c1ccc(-c2csc(=Nc3ccccc3)n2CCCN2CCOCC2)cc1)N1CCOCC1	-12	-13	6%	-0.6%	-0.9	-3	-28
C/C(=N\Nc1nccnc1Cl)c1ccc(O)c(C)c1	-1	-15	?	1.3%	4.2	-4	-12
COc1ccc(S(=O)(=O)N(CCCN2CCCC2=O)Cc2cc3c(C)cc(C)cc3[nH]c2=O)cc1	4	-10	-7%	1.3%	-3.1	-4	-12
O=[N+]([O-])c1ccc(-c2ccc(/C=N/O)o2)cc1	-3	-5	0%	-0.5%	-1.0	0	-9
COc1ccc(OC)c(NC(=O)CSc2nnc(CNC(=O)c3cc(OC)c(OC)c(OC)c3)o2)c1	0	-1	-3%	-0.6%	-0.7	-11	-1
CC(C)C(=O)N1CCC2(CC1)Oc1ccc(Cl)cc1C(=O)C21CC(c2ccc(Cl)cc2)=NO1 (stereo unspecified)	-18	?	-7%	1.3%	-2.4	-5	-10
O=C(CCCN1C(=O)c2cccc3cccc(c23)C1=O)N1CCN(Cc2ccc3c(c2)OCO3)CC1	20	-20	1%	-3.7%	1.4	-22	-22
COc1ccc([C@H]2N[C@]3(CCCN(Cc4cccn4C)C3=O)[C@H]3C(=O)N(Cc4ccccc4)C(=O)[C@@H]23)cc1	.	1	.	0.7%	-11	7	-4
Cc1ccc(N2CCN(C(=O)c3ccccc3NC(=O)c3ccccc3C(=O)O)CC2)cc1	-6	22	15%	4.6%	-0.4	-7	14

Full records as entered above. Screens in order: TRPV1 potentiator	CtBP-E1A blk	Sfp inh	PINK1 expr mod	D2 agonist	D2 potentiator	Six1-Eya2 blk
`O=C(CCCN1C(=O)c2cccc3cccc(c23)C1=O)N1CCN(Cc2ccc3c(c2)OCO3)CC1` is listed as 20	-20	1%	-3.7%	1.4	-22	-22
`Cc1ccc(N2CCN(C(=O)c3ccccc3NC(=O)c3ccccc3C(=O)O)CC2)cc1` is listed as -6	22	15%	4.6%	-0.4	-7	14

Remaining list, next part.
SMILES	TRPV1 potentiator	CtBP-E1A blk	Sfp inh	PINK1 expr mod	D2 agonist	D2 potentiator	Six1-Eya2 blk
Cc1ccc([C@H]2C(C(=O)O)=CC[C@@H](c3ccc(Cl)c(Cl)c3)N2S(=O)(=O)c2ccc(C)cc2)cc1	.	0	.	0.0%	-1.7	.	-8
CC(=C/c1ccco1)/C=N/NC(=O)Cc1cccn1C	5	-7	-29%	5.8%	0.6	-20	-20
Cc1cccc(-n2c(Cc3cc(=O)[nH]c(=O)[nH]3)nnc2SCC(=O)N2CCCCC2)c1	.	4	23%	0.3%	2.2	-2	-3
CC1=CCC(C(=O)O)C(C(=O)NC2CCCCC2)C1 (stereo unspecified)	0	1	9%	2.5%	0.7	-4	-9
CC1C[C@@]2(NC(=O)NC2=O)C(C)CN1C (stereo partly specified)	0	-2	20%	1.6%	-3.7	1	9
Cn1c([N+](=O)[O-])cnc1N1CCN(c2nncs2)C1=O	10	.	0%	3.8%	-7.4	3	-30
Brc1ccc(C2Nc3cccc4cccc(c34)N2)o1	13	1	?	3.0%[38.3 µM]	8.0	61*	-6

Source: PubChem
